# Screening results from PubChem BioAssay.
# Biofilm kill mix = clotrimazole potentiators killing C. albicans biofilm, primary screen, 4-compound mixtures | C. albicans biofilm persisters + clotrimazole, fluorescence viability; primary screen in compound mixtures of four per well | inhibition, % at 7.6 µM | 120,000 compounds, 0.02% hits | AID 1242, 2008;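 active = inhibition above 30.3% in the primary screen of four-compound pools, then above 30% when the compound was retested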;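 note: compounds exposed to preformed 24 h biofilms for 48 h; the number belongs to the whole pool; some results filed as inactive read as strong as hits; inactives centre near 12; 0% = biofilm with clotrimazole alone and 100% = kill control; retested singly at about 60 µM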
#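 Probe or stimulus – Clotrimazole 50 µg/mL co-treatment · System – C. albicans biofilms · Schedule – 24 h biofilm formation, then 48 h compound exposure, 37 °C · Evaluation – percent inhibition of biofilm viability · Technique – 2-h Alamar Blue fluorescence, 535/590 nm excitation/emission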
# Numbers without * were called inactive.
# The first 2 records, to show the layout:
SMILES,Biofilm kill mix
C#CCOCCOCCOCCNc1nc(N2CCOCC2)nc(N2CCN(C(=O)[C@H]([C@@H](C)CC)n3cc([C@@H](N)Cc4ccc(O)cc4)nn3)CC2)n1,19.3
COc1cc2c(C(=O)N3CCOCC3)c(CSc3ccccc3)n(C)c2cc1Br,20.4

# Main list, from the start:
SMILES,Biofilm kill mix
C#CCOCCOCCOCCNc1nc(N2CCOCC2)nc(N2CCN(C(=O)[C@H]([C@@H](C)CC)n3cc([C@@H](N)Cc4ccc(O)cc4)nn3)CC2)n1,19.3
COc1cc2c(C(=O)N3CCOCC3)c(CSc3ccccc3)n(C)c2cc1Br,20.4
Cc1ccc(C)c2c1cc(C)c1nnc(SCC(=O)NCc3ccc4c(c3)OCO4)n12,11.3
O=C(Nc1ccccc1Cl)Oc1ccc2ccccc2c1,15.3
Cn1cnnc1SCc1ccc(C(=O)N=Nc2c(O)n(C)c3ccccc23)cc1,16.6
CCOC(=O)C1(Cc2cccc(OC)c2)CCN(CC=C(C)C)CC1,12.2
O=C(/C=C/c1ccccc1)Nc1cccc(C(=O)O)c1,17.7
CCO[C@@H]1OC(C(=O)NCc2ccccc2)=C[C@H](C2CC2)[C@H]1CCCO,13.9
CCOc1ccc(N(CC)C(=O)c2nn(-c3ccc(OC)cc3)c(=O)c3c2c2ccccc2n3C)cc1,11.3
CCN(CC(=O)Nc1ccc(NC(C)=O)cc1)C(=O)C(c1ccccc1)c1ccccc1,3.7

# Brought forward from above: 3 entries; new compounds follow.
SMILES,Biofilm kill mix
CCO[C@@H]1OC(C(=O)NCc2ccccc2)=C[C@H](C2CC2)[C@H]1CCCO,13.9
CCOc1ccc(N(CC)C(=O)c2nn(-c3ccc(OC)cc3)c(=O)c3c2c2ccccc2n3C)cc1,11.3
CCN(CC(=O)Nc1ccc(NC(C)=O)cc1)C(=O)C(c1ccccc1)c1ccccc1,3.7
O=C(CCc1nnc(C2(c3ccc(Cl)cc3)CCC2)o1)NC1CC1,18.6
Cc1cc(=O)oc2cc(OCC(=O)OCC(=O)Nc3c(C)n(C)n(-c4ccccc4)c3=O)ccc12,10.4
Cc1[nH]c2ccc(F)cc2c1CCN(Cc1cccnc1)C(=S)Nc1ccccc1,12.3
COCCN1C(=O)C(=O)/C(=C(/O)c2ccc(C)cc2)C1c1ccccn1 (stereo unspecified),7.9
N#C/C(C(=O)N1CCOCC1)=C1/SC(Cc2ccccc2Cl)C(=O)N1c1ccccc1 (stereo unspecified),14.6
N/C(=N\OC(=O)c1csnn1)c1ccc(C(F)(F)F)cc1,8.0
O=C(c1cc2ccccc2s1)N1CCOCC1,14.3
CN1CCc2c(sc(/N=C/c3c[nH]c4ccccc34)c2C#N)C1,26.5
CCCCCC[n+]1c(-c2ccc(Cl)cc2Cl)csc1Nc1ccccc1,26.7
C/C(=N\NC(=O)NC1CCCCC1)c1ccc(OC(F)F)cc1OC(F)F,10.3
CCO[C@H]1OC(C(=O)Nc2ccccc2)=C[C@@H](C2CC2)[C@@H]1CCCO,16.5
CC1CCc2c(sc3ncnc(NCc4cccnc4)c23)C1 (stereo unspecified),13.9
C=CCn1c(SCc2ccc(C(=O)Nc3nccs3)cc2)nnc1-c1ccc(C)c(Cl)c1,4.0
CCN(CC)c1ccc(/C=N/NC(=O)c2ccc(Br)o2)cc1,19.0
CC(=O)CCc1oc2ccc(C)cc2c1-c1ccc(C)o1,-2.4
COc1ccc(-n2nc(C(=O)NCC(=O)NCC3COc4ccccc4O3)c3ccccc3c2=O)cc1OC (stereo unspecified),7.2
CCCCCCSc1nsc(NC(=O)CC(C)C)n1,7.5
Cc1cc(CN(C)C(=O)CC2C(=O)NCCN2CC(c2ccccc2)c2ccccc2)on1 (stereo unspecified),12.9
COC(=O)CN(C#N)c1nc(N(C)C)nc(N(C)C)n1,13.9
CCn1c2ccccc2c2cc(NC(=O)CSc3nccc(=O)[nH]3)ccc21,12.2
CCC(C)c1ccc(S(=O)(=O)N2CC(=O)Nc3ccccc32)cc1 (stereo unspecified),0.7
COc1cc(O)cc2occ(-c3ccc(O)cc3)c(=O)c12,14.1
Cc1cc(C(=O)COC(=O)c2ccc([N+](=O)[O-])o2)c(C)n1CC1CCCO1 (stereo unspecified),0.8
CSc1nc(Cc2ccccc2)nc2ccccc12,21.0
Nc1nnc(CC(=O)N/N=C/c2ccccc2OCc2ccccc2F)s1,14.1
O=C1NC(=O)C2(CCC(C(=O)O)C2)N1 (stereo unspecified),5.2
COc1ccc(C(=O)Nc2ncc3c(n2)CC(C)CC3=O)cc1 (stereo unspecified),17.9
CCNc1nc(SC(C)C(=O)Nc2ccccc2)nc(N(C)C)n1 (stereo unspecified),18.6
O=C(NC(=S)N1CCCCC1CO)C12CC3CC(CC(C3)C1)C2 (stereo unspecified),17.6
CNC(=S)Nc1sc2c(c1C(=O)OC)CCC2,14.5
CCN(C(=O)COC(=O)c1ccc(N2C(=O)c3ccccc3C2=O)cc1)C1CCS(=O)(=O)C1 (stereo unspecified),7.5
Cc1cc(-c2ccccc2)c(C#N)c(=S)[nH]1,21.1
C=CCOc1ccc(C=Nc2ccc(OC)cc2)c(O)c1,22.9
COc1ccccc1CNC(=O)C(NC(=O)c1ccccc1C)C(C)C (stereo unspecified),3.4
Cc1c(CNCCc2ccc(Cl)cc2)c(C(=O)O)c(C)n1Cc1ccccc1,6.8
CCc1cccc(NS(=O)(=O)c2ccc3c(c2)NC(=O)CC(=O)N3)c1,19.3
O=C(NCCN1CCOCC1)C(Sc1ccccc1)c1ccccc1 (stereo unspecified),14.5
COCCCNC(=S)NNC(=O)c1csc(C)n1,13.0
Cc1ccc(-c2noc(-c3ccccc3F)n2)cc1,5.5
O=C(COc1ccc(Cl)cc1Cl)Nc1nnc(C2=COCCO2)o1,6.6
O=C(CCCn1c(=O)c2ccccc2n(Cc2cccc(F)c2)c1=O)NC1CCN(Cc2ccccc2)CC1,17.4
CCN1/C(=C/C=C/C=C/c2sc3ccccc3[n+]2CC)Sc2ccccc21,13.7
CCCCCCCCCC(=O)Nc1cccnc1,32.0
CC1CN(C(=O)c2cc3cc([N+](=O)[O-])ccc3oc2=O)CC(C)O1 (stereo unspecified),10.5
COc1ccc(-c2cc(C(F)F)n3ncc(C(=O)Nc4ccc(C(=O)N5CCOCC5)cc4)c3n2)cc1,12.2
O=C(NCC1CCCO1)c1cc2ccccc2nc1Cl (stereo unspecified),8.3
Cc1ccc(S(=O)(=O)c2ccc(-n3nc(C)cc3N)cc2)cc1,9.7
CCOC(=O)c1c(NC(=S)Nc2cc([N+](=O)[O-])ccc2OC)sc2c1CCCCC2,-0.8
COc1ccccc1N=Cc1c(C)c(C#N)c2[nH]c3ccccc3n2c1=O,7.5
CC(C)c1ccccc1-n1c(SCC(=O)c2ccc3c(c2)NC(=O)CO3)nc2ccccc2c1=O,13.9

# Next section.
SMILES,Biofilm kill mix
N#Cc1c2ccccc2nc2ccccc12,23.8
CC(CC(=O)O)CC(=O)Nc1cc(C(F)(F)F)cc(C(F)(F)F)c1 (stereo unspecified),12.6
Cc1nc(-c2ccccc2)cn2c1nc1ccccc12,12.8
O=C(O)c1ccccc1/C=N/Nc1nc(N2CCCCC2)nc(N2CCCCC2)n1,9.8
COc1ccc(/C=N/Nc2cc(OC)ncn2)cc1,-1.1
Cc1cc(C)n2cc(CSc3nncn3C)nc2n1,-7.3
O=C1/C(=N\S(=O)(=O)c2cccs2)C([n+]2ccc(CCCc3ccccc3)cc2)=C([O-])c2ccccc21,9.5
COc1ccc(S(=O)CC(=O)Nc2ccc(Cl)cc2Cl)cc1 (stereo unspecified),19.1
CCS(=O)(=O)c1ccc2oc(SCC(=O)NCCc3ccccc3)nc2c1,0.9
O=C1CCCCCN1CP(=O)(O)CN1CCCCCC1=O,14.2

# In a second layout: entries from further up
structure	Biofilm kill mix
CC(CC(=O)O)CC(=O)Nc1cc(C(F)(F)F)cc(C(F)(F)F)c1 (stereo unspecified)	12.6
Cc1nc(-c2ccccc2)cn2c1nc1ccccc12	12.8
O=C(O)c1ccccc1/C=N/Nc1nc(N2CCCCC2)nc(N2CCCCC2)n1	9.8
COc1ccc(/C=N/Nc2cc(OC)ncn2)cc1	-1.1

# New compounds follow.
SMILES,Biofilm kill mix
O=C(COC(=O)c1cc([N+](=O)[O-])ccc1NCc1ccccc1Cl)NCC(F)(F)F,10.2
Fc1ccc(CN2C3=NCCN3c3ccccc32)cc1,18.8
Cc1cccc(NC(=O)COc2ccc(Br)cc2/C=N/O)c1,21.9
O=c1[nH][nH]c(-c2ccccc2O)c1C(C[N+](=O)[O-])c1ccccc1 (stereo unspecified),6.7
Cc1ccc(-c2nnc(SCC(=O)N/N=C/c3ccc(C)s3)n2-c2ccc(C)cc2)cc1,16.3
COc1ccccc1N=NC1=C(O)CC(C)(C)CC1=O,10.0
O=C(CSc1nncn1-c1ccccc1)c1c[nH]c2ccccc12,9.4
CNS(=O)(=O)c1cccc(C(=O)OCC(=O)/C=C2/N(C)c3ccccc3C2(C)C)c1,22.4
CCCN1C(=O)C2(SC(NC(C)=O)=NN2C(C)=O)c2cc(C)ccc21 (stereo unspecified),19.8
Cc1cc(C)c(NC(=O)c2ccc[n+](Cc3ccc([N+](=O)[O-])cc3)c2)c(C)c1,11.4
CCOCCCNC(=O)c1c(N)n(-c2ccc3c(c2)OCO3)c2nc3ccccc3nc12,24.4
O=C(O)c1cc(-c2ccco2)nn1-c1ccc(Cl)cc1,11.4
COc1cc(CC(C#N)(CO)c2nc3ccccc3[nH]2)ccc1OC(F)F (stereo unspecified),3.9
Cc1ccc(C)c2c1c1ccccc1n2C,15.5
COc1ccc(NC(=O)c2cn(CCC#N)nc2-c2cccs2)cc1,18.5
CC1=NN(C(=O)CCc2ccccc2O)C(O)(C(F)(F)F)C1 (stereo unspecified),4.8
N#Cc1ccc(C23CC4(C2)[C@H](CN(Cc2ccc(-c5ccccc5)cc2)[C@@H]4c2ccccc2)C3c2ccc(Cl)nc2)cc1 (stereo partly specified),10.8
Cc1ccc(NC(=O)COC(=O)COc2ccc(Cl)cc2)c([N+](=O)[O-])c1,16.9
CCC1(CC)C(=O)NC(=O)NC1=Nc1ccccc1,1.4
Clc1ccc(CN2C3=NCCCN3c3ccccc32)cc1Cl,17.8
CCN(CC)S(=O)(=O)c1ccc(OC)c(NC(=O)/C=C/c2ccco2)c1,-5.7
CCN(CC)S(=O)(=O)c1ccc(S(=O)(=O)N(CC(=O)Nc2ccccc2)Cc2ccco2)cc1,10.5
CCC(CC)NC(=O)CCCSc1nc2ccccc2[nH]1,6.1
Cc1nn(C)c(Oc2cccc(C(F)(F)F)c2)c1C#N,11.3
CC(NC(=O)COC(=O)c1ccc2c(c1)S(=O)(=O)N=C1CCCCCN12)C12CC3CC(CC(C3)C1)C2 (stereo unspecified),18.6
Cc1ccc(C)c(OCC(=O)NCC(C)C)c1C,8.7
COc1cc(CNCc2cccnc2)ccc1OCC(=O)NC1CCCCC1,15.5
CC1CCC2C(=O)N(c3ccc(C(=O)NCc4ccccc4)cc3)C(=O)C2C1 (stereo unspecified),12.3
O=C(O)CCCC(=O)Nc1ccc(N=Nc2ccccc2)cc1,9.6
CCCSc1nc2c(cnn2-c2ccccc2)c(=O)n1N,11.1
CC(C)NC(=O)CSc1nnc(-c2ccc3ncccc3c2)n1C,25.2
O=C(N/N=C\c1ccc(Cl)s1)C1COc2ccccc2O1 (stereo unspecified),23.5
CC(=O)c1ccccc1NC(=O)Cn1c(=O)cnc2ccccc21,8.1
O=C(c1ccc(CNS(=O)(=O)c2ccc(Br)cc2)cc1)N1CCCC1,10.3
CN(Cc1ccc(-n2cccn2)cc1)Cc1nc(-c2cnccn2)no1,5.9
COc1ccc(OC)c(S(=O)(=O)NCCOC23CC4CC(CC(C4)C2)C3)c1,6.9
COc1cc(OC)cc(C(=O)NC(=S)NNC(=O)c2cnccn2)c1,13.8
Cc1noc(C)c1C(=O)OCC(=O)C12CC3CC(CC(C3)C1)C2,18.8
c1ccc(CCN2CN=C(Nc3nc4ccccc4s3)NC2)cc1,21.5
O=C1N/C(=C/c2ccc(Br)cc2)C(O)=C1C=NCc1ccccc1,8.2
CC(=O)c1ccc(N2CCN(C(=O)c3n[nH]c4ccccc34)CC2)cc1,22.3
CC(=O)c1ccc(C(=O)N2CCCC(C(=O)c3cc(F)ccc3F)C2)s1 (stereo unspecified),22.3
COc1ccc(NC(=S)N2CCCC2)c(OC)c1,17.7
CC(=O)NC(Cc1cccc(F)c1)C(=O)NC1CCN(c2nnnn2-c2ccccc2)CC1 (stereo unspecified),11.9
COc1ccc(N2CCN(Cc3nnc(-c4ccccc4)o3)CC2)cc1,8.9
COC(=O)c1sc(-c2ccc(C(C)(C)C)cc2)cc1NC(=O)CCC(=O)O,2.7
COC(=O)[C@@H]1CC[C@H](C)[C@@H](c2ccc(C)cc2)N1C(=O)c1ccc(/C=N/OC[C@@H](O)COCc2ccco2)cc1,10.6
O=c1c(Cl)c(Cl)cnn1Cc1ccccc1Cl,18.6
COc1ccc2cc(-c3[nH]ncc3CN3CCCC3c3nonc3C)ccc2c1 (stereo unspecified),11.2
CN(C(=O)COC(=O)c1n[nH]c2ccccc12)C1CCS(=O)(=O)C1 (stereo unspecified),7.7
COc1cccc(N/C=C/C(=O)c2ccc(Cl)cc2)c1,6.2
CCN1C(=O)CCCc2ccccc21,9.6
CC(C)(C)CC(=O)O/N=C(\N)c1ccncc1,15.7

# A few values from the entries so far:
# COc1ccc2cc(-c3[nH]ncc3CN3CCCC3c3nonc3C)ccc2c1 (stereo unspecified) @ Biofilm kill mix: 11.2
# COC(=O)[C@@H]1CC[C@H](C)[C@@H](c2ccc(C)cc2)N1C(=O)c1ccc(/C=N/OC[C@@H](O)COCc2ccco2)cc1 @ Biofilm kill mix: 10.6
# COc1cccc(N/C=C/C(=O)c2ccc(Cl)cc2)c1 @ Biofilm kill mix: 6.2
# CC(=O)NC(Cc1cccc(F)c1)C(=O)NC1CCN(c2nnnn2-c2ccccc2)CC1 (stereo unspecified) @ Biofilm kill mix: 11.9
# COc1ccc(NC(=S)N2CCCC2)c(OC)c1 @ Biofilm kill mix: 17.7

# These rows are one share of the data; rates above refer to the full screens.
